Source: PubChem BioAssay
TRPML1 inh – human mucolipin-1 channel inhibition; Q9GZU1; TRPML1-inducible cells, Ca2+ dye fluorescence, FDSS; hits give low values; inhibition of EC80 agonist-evoked calcium signal; AID 624415; activity change, negative = inhibition, % (concentration not given with the values); 390,000 compounds, 0.02% hits; in the data active means activity change below about -50%; inconclusive means about -30% to -50%; inactive means above about -30%;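 note: stimulus is agonist 54-4 at its EC80 concentration; % is set by controls: 0 for no effect and ±100 for the full control effect; the text of the record puts the active cut at -80%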
Target sequence (Q9GZU1 whole entry, looked up): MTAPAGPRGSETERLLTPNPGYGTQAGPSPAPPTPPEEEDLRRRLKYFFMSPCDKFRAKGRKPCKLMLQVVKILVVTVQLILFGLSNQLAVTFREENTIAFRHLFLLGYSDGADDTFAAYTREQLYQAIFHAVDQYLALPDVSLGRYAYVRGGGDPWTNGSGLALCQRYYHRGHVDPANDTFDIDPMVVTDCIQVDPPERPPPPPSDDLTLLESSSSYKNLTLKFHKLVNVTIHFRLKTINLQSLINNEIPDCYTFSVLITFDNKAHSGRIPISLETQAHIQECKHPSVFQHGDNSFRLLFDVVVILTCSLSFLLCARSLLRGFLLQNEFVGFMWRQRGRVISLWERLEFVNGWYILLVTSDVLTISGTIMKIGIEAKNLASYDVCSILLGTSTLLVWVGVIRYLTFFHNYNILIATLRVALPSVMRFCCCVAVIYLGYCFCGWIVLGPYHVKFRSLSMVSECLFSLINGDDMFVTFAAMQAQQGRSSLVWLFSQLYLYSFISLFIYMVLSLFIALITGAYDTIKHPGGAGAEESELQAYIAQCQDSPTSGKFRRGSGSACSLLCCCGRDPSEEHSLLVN
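TRPML1-DL cells, Tet-induced overnight (~16 h, 37 °C) at 1,500 cells/well, were loaded with Ca8 no-wash dye plus quencher for 45-90 min at room temperature. Compounds were pinned during FDSS kinetic reading; agonist 54-4 at EC80 (4 uM final) then added.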
D2 ag – agonists of human D2 dopamine receptor (beta-arrestin); P14416; DiscoveRx PathHunter D2 beta-arrestin, luminescence, 90 min; 100% = 57 uM dopamine signal; activation, % (test concentration not listed); 360,000 compounds, 0.084% hits; in the data active = activation above about 40%; inconclusive = about 15% to 40%; inactive = below about 15%; note: compound concentration not given in the record; the text of the record calls up to 30% inactive
Target sequence (P14416 whole entry, looked up): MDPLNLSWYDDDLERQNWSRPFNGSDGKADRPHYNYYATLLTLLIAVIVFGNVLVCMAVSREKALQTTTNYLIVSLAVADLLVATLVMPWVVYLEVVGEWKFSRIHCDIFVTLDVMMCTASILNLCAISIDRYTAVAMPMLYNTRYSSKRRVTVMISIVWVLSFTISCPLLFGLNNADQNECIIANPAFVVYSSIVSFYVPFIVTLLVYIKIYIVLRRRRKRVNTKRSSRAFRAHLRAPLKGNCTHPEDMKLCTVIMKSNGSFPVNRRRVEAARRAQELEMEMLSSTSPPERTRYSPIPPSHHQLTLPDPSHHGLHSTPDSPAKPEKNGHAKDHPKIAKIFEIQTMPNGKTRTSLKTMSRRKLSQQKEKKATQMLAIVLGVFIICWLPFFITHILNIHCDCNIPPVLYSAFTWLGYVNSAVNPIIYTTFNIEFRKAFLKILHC
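Agonist mode: compounds alone added to overnight-plated D2 PathHunter cells for 90 min at 37 C, with 57 uM final dopamine (EC100) defining full response. Beta-arrestin recruitment detected by chemiluminescent reagent, read after 1 h at ambient temperature.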
Six1-Eya2 blk – inhibitors of human Six1/Eya2 interaction; Q15475+O00167; AlphaScreen GST-Six1/His-Eya2 binding, biochemical; hits give low values; control for the full effect not named in the record; activity change, % (concentration not given with the values); 360,000 compounds, 0.56% hits; AID 651725; in the data active = activity change below about -65%; inconclusive = about -30% to -65%; inactive = above about -30%; note: % is set by controls: 0 for no effect and ±100 for the full control effect
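Six1/Eya2 binding was read as AlphaScreen signal after compounds were pinned into GST-Six1 plus His-tagged Eya2 (5X stock 250/500 nM) in pH 8.0 Tris/NaCl/TCEP buffer, beads added, then incubated 1 h, 37 C, dark.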
TRPML1 agonist – activates the human TRPML1 channel | Q9GZU1 | TRPML1-expressing cells, Ca2+ dye fluorescence, FDSS; host cell line not named in the record; reference of the full effect not given here | activation, % (test concentration not listed) | 410,000 compounds, 0.12% hits | AID 624414; in the data active = activation above about 50%; inconclusive = about 30% to 50%; inactive = below about 30%; note: 0% is about no effect; the text of the record puts the active cut at 80%
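In this qHTS format, compounds were pin-transferred onto Ca8-dye-loaded TRPML1-DL cells induced with Tet overnight, and intracellular Ca2+ fluorescence was recorded kinetically for 110 s after a 10 s baseline. A subsequent 4uM final 54-4 (EC80) addition followed by a second 110 s read served as the antagonist phase.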
PINK1 modulator – PINK1 expression modulation; Potency, µM (series often up to 76.6 µM), without a hit: at the top dose activation (PINK1 increase), most hits filed as activators; AID 624263; PINK1 immunofluorescence, high-content cytometry, 24 h; 410,000 compounds, 0.2% hits; active = well fitted activation curve with a large enough effect; inconclusive = small, poorly fitted or top-dose-only effect; inactive = flat fitted curve, though single readings scatter; cell line not stated here;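 note: potency is the fitted concentration of half-maximal effect; % of control where 0% means no effect; nearly all actives have a fitted effect of over 65% in size; a mitochondrial uncoupler was the plate control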
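PINK1 protein level read as immunofluorescence by microplate cytometer in a fixed, stained stable cell line after 24 h exposure to five compound concentrations, with CCCP as control.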
CtBP-E1A blk – blocks the CtBP interaction with E1A; AID 651724; 340,000 compounds, 0.49% hits; activity change, % (test concentration not listed); AlphaScreen GST-E1A/His-CtBP binding, 1536-well; hits give low values; control for the full effect not named in the record; in the data active means activity change below about -65%; inconclusive means about -30% to -65%; inactive means above about -30%; note: % is set by controls: 0 for no effect and ±100 for the full control effect
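Steps: dispense buffer (Tris pH 8.0, NaCl 300 mM, TCEP 1 mM, BSA, Tween 20); add 5X protein mix (GST-E1A, His-CtBP, 125 nM each); pin 23 nL compound; 2 h at 37 °C, dark; add 5X beads (50 ug/mL); 1 h; read.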
* = called active by the depositor; ? = inconclusive; . = no result given; & = joins results of further samples; [ ] = dose if it differs, or a comment.

SMILES	TRPML1 inh	D2 ag	Six1-Eya2 blk	TRPML1 agonist	PINK1 modulator	CtBP-E1A blk
CCN(CCn1cccn1)C(=O)CC1C(=O)NCCN1Cc1ccc(F)cc1 (stereo not drawn)	-9	-16	2	0.0	-0.5%	3
CCCCn1c(SC(C)C(=O)NCC2CCCO2)nc2cc(C(=O)OC)ccc2c1=O (stereo not drawn)	-3	-5.0	3	1.2	8.1%	0
CC(=O)Nc1nnc(Cc2c[nH]c3ccccc23)s1	19	-2.0	-14	1.2	2.3%	-9
COc1ccccc1-c1cn[nH]c(=S)n1	-2	-2.9	-28	-0.6	0.8%	-1
COc1ccc(NC2CCCN(C(=O)CCN3CCCC3=O)C2)cc1 (stereo not drawn)	3	1.4	0	-0.1	2.5%	-2
Cc1cccc(NC(=O)CSc2nc3nc4c(cc3c(=O)n2-c2ccccc2)CCCC4)c1	-19	-1.8	0	1.3	1.2%	-5
Cc1cc(C)nc(SC(C)CNS(=O)(=O)c2ccccc2)n1 (stereo not drawn)	5	-4.5	5	-0.1	-0.6%	7
CCOC(=O)CC(=O)CSc1nc2ccccc2c(=O)n1CCc1ccccc1	43	.	.	0.1	0.6%	.
CC1CCN(C(=O)COC(=O)Cn2cnc3ccccc32)CC1	-4	-5.7	6	-0.1	-0.7%	10
COc1ccc(CC(=O)OCC(=O)N(C)C2CCS(=O)(=O)C2)cc1OC (stereo not drawn)	-1	-4.3	6	-0.3	0.0%	7
Cc1nn(-c2ccccc2)c(C)c1C(=O)NCc1ccc(F)cc1	10	-2.9	4	0.9	1.1%	0
CC(=O)Nc1ccc(S(=O)(=O)NC2(C(F)(F)F)NC(=O)N(c3ccccc3F)C2=O)cc1 (stereo not drawn)	-2&11	-3.5	7	0.0&-0.3	0.2%&0.0%	-1
CCOC(=O)CC(=O)NC(C)(C)CCCCC(C)(C)NC(=O)CC(=O)OCC	7	4.4	1	-0.5	-0.2%	.
CCOc1ccc(NC(=O)CSc2nc3c(c(=O)n2C)SC(C)C3)cc1 (stereo not drawn)	43	8.5	-11	0.4	-0.1%	3
O=c1c(-c2n[nH]c(=S)o2)cccn1Cc1ccccc1	5	-6.9	-4	1.2	0.3%	3
Cc1cc(C)cc(CSCC(=O)N/N=C/c2ccc(OCC(=O)NCc3ccco3)cc2)c1	-1	5.1	-5	2.2	-1.1%[38.3 µM]	-3
COc1ccc(S(=O)(=O)N2CCN(C(=S)NC3CCCCC3)CC2)cc1	7	0.0	-2	-0.8	-0.7%	0
CCOCC(=O)Nc1c(C(=O)N2CCN(c3ncccn3)CC2)oc2ccccc12	35	7.1	1	0.9	-0.7%	3
O=C(Cn1nnc(-c2cccs2)n1)NCc1ccccc1	-9	-0.1	2	0.4	-3.0%	-9
O=C(CN1C(=O)C2C3C=CC(C3)C2C1=O)NCCc1ccccc1Cl (stereo not drawn)	0	0.5	11	0.0	-1.5%	13
Cc1cc(-c2ccc(C(C)C)c(S(=O)(=O)NCCN3CCC(C)CC3)c2)on1	4	-0.9	-3	4.4	2.9%	.
O=C1CN(C(=O)CNC(=O)c2ccccc2Cl)c2ccccc2N1	-8	5.2	6	-0.3	1.1%	22
Oc1ccccc1-c1nc(/C=C/c2ccc(F)cc2)nn1-c1ccccc1	-7	.	.	0.4	1.6%	.
OC(c1ccccc1)c1ncc(-c2ccc(Oc3ccccc3)cc2)[nH]1 (stereo not drawn)	.	-2.7	-26	-0.9	-0.4%	-14
O=C1c2ccccc2C(=O)N1CCCc1c[nH]c2ccc(Cl)cc12	8	0.5	-4	2.6	2.4%	-3
SMILES	TRPML1 inh	D2 ag	Six1-Eya2 blk	TRPML1 agonist	PINK1 modulator	CtBP-E1A blk
Cc1ccc(C(=O)CCC(=O)Nc2ncccc2O)cc1	0	-0.2	-8	0.3	-1.1%	-21
O=C(COC(=O)CCc1ccc(S(=O)(=O)N2CCOCC2)cc1)NC(=O)NC1CCCCC1	47	-2.9	-3	2.5	-0.9%	0
O=C(CO/N=C/c1ccccc1O)NNC(=O)c1ccccc1Cl	21	-0.9	0	-0.6	-0.2%	-2
CC(=O)Nc1sc(C)c(C)c1C(=O)OCC(=O)Nc1ccc(S(N)(=O)=O)cc1	45	-3.6	5	0.8	?	-2
Cc1ccc(OCc2nnc(SC(C)C(=O)O)n2Cc2ccccc2)cc1 (stereo not drawn)	-8	-2.8	-4	0.3	-0.9%	0
O=C(O)c1ccc(NC(=O)c2ccc3c(c2)C(=O)N(c2ccccc2)C3=O)cc1	8	-5.8	-7	-0.4	2.8%	.
Cc1nnc(SCc2cccc([N+](=O)[O-])c2)[nH]c1=O	4	-3.5	7	-0.3	2.9%	-21
O=C(Nc1cccc(-c2cscn2)c1)C1CCN(Cc2ccc(CO)o2)CC1	-1	-2.4	3	-0.3	1.2%	.
Cc1ccc2c(c1)[nH]c1c(=O)n(Cc3ccccn3)cnc12	20	0.4	3	-0.8	-0.5%	9
O=C(C[n+]1ccc(Cc2ccccc2)cc1)Nc1ccc([N+](=O)[O-])cc1Cl	-25	?	-9	0.3	-1.4%	.
COc1ccc(C(=O)Nc2ccccc2C(=O)N/N=C/c2ccccc2OC)cc1	20	-0.3	0	0.7	1.6%	-12
Cc1cc(NC(=O)C(C)SCC(=O)Nc2nc3c(F)cc(F)cc3s2)no1 (stereo not drawn)	-5	-2.0	-14	-0.8	6.1%	.
O=C(C1CC1)N1N=C(C2CCCCC2)CC1(O)C(F)(F)F (stereo not drawn)	-2	-0.1	10	0.5	7.6%	-15
COc1ccc(-c2noc(CSc3nc4sc(C)c(C)c4c(=O)n3-c3ccccc3)n2)cc1	3	-1.4	-2	-0.3	7.5%	4
Cn1c(=O)c2c(nc(Oc3cccc(O)c3)n2C)n(C)c1=O	2	5.2	-10	0.4	-1.2%	-7
Cc1ccc(NC(=O)/C(=C\c2ccc3c(c2)OCO3)NC(=O)c2ccco2)cc1	-15	-2.9	2	-0.5	-1.0%	-1
Cc1ccc2c(c1)N(CC(=O)NCCCN1CCOCC1)C(=O)c1cccnc1O2	-4	-5.1	3	0.3	-0.2%	1
COC(=O)c1ccccc1C(=O)N1CCOCCOCCOCC1	1	0.4	9	-0.5	0.4%	2
COc1cc(CNc2nc(C)c([N+](=O)[O-])c(C)c2C#N)cc(OC)c1	-10	3.8	2	18	-1.8%	-5
O=C(O)CCC(=O)Nc1ccccc1Oc1ccccc1	-5	-3.1	0	0.0	-1.7%	8
OC(COc1ccc(Br)cc1)CN1CCN(c2ccccc2)CC1 (stereo not drawn)	10	-2.7	-10	-0.4	10%	1
Cn1cnc(S(=O)(=O)N2CCC(C(=O)Nc3ccc(C#N)cc3)CC2)c1	-2	.	.	1.2	1.0%	.
Cc1cn2c(=O)c(S(=O)(=O)Nc3ccc(F)cc3F)c(C)nc2s1	34	.	.	-0.4	0.0%	.
Fc1ccccc1/C=N/NC(=S)Nc1ccc(Cl)cc1Cl	42	-2.1	1	-0.4	21%	3
COc1cc(C2C3C(=O)N(c4ccc(F)cc4)C(=O)C3ON2c2ccccc2)ccc1O (stereo not drawn)	3	3.2	-2	0.1	0.1%	1

Ten compounds from above, ordered by heavy-atom count, lowest first:
SMILES	TRPML1 inh	D2 ag	Six1-Eya2 blk	TRPML1 agonist	PINK1 modulator	CtBP-E1A blk
Cc1ccc(C(=O)CCC(=O)Nc2ncccc2O)cc1	0	-0.2	-8	0.3	-1.1%	-21
Cn1c(=O)c2c(nc(Oc3cccc(O)c3)n2C)n(C)c1=O	2	5.2	-10	0.4	-1.2%	-7
Cc1cn2c(=O)c(S(=O)(=O)Nc3ccc(F)cc3F)c(C)nc2s1	34	.	.	-0.4	0.0%	.
COc1cc(CNc2nc(C)c([N+](=O)[O-])c(C)c2C#N)cc(OC)c1	-10	3.8	2	18	-1.8%	-5
Cn1cnc(S(=O)(=O)N2CCC(C(=O)Nc3ccc(C#N)cc3)CC2)c1	-2	.	.	1.2	1.0%	.
O=C(C[n+]1ccc(Cc2ccccc2)cc1)Nc1ccc([N+](=O)[O-])cc1Cl	-25	?	-9	0.3	-1.4%	.
O=C(O)c1ccc(NC(=O)c2ccc3c(c2)C(=O)N(c2ccccc2)C3=O)cc1	8	-5.8	-7	-0.4	2.8%	.
Cc1ccc2c(c1)N(CC(=O)NCCCN1CCOCC1)C(=O)c1cccnc1O2	-4	-5.1	3	0.3	-0.2%	1
COc1cc(C2C3C(=O)N(c4ccc(F)cc4)C(=O)C3ON2c2ccccc2)ccc1O (stereo not drawn)	3	3.2	-2	0.1	0.1%	1
COc1ccc(-c2noc(CSc3nc4sc(C)c(C)c4c(=O)n3-c3ccccc3)n2)cc1	3	-1.4	-2	-0.3	7.5%	4

Later entries.
SMILES	TRPML1 inh	D2 ag	Six1-Eya2 blk	TRPML1 agonist	PINK1 modulator	CtBP-E1A blk
CC(C)c1ccccc1OCC(=O)N1CCCCCCC1	-16	4.1	13	0.4	7.3%	15
CCOc1ccc(C(=O)NCCn2cc(SCC(=O)Nc3ccccc3)c3ccccc32)cc1	9	.	.	4.6	2.3%	.
Cc1c(NC(=O)C2CCCN2S(=O)(=O)c2ccccc2)c(=O)n(-c2ccccc2)n1C (stereo not drawn)	-11	-0.9	12	1.1	-1.6%	-7
COc1ccc(CCn2c(C)cc3c(c2=O)C(c2ccc4c(c2)OCO4)C(C#N)=C(N)O3)cc1OC (stereo not drawn)	1	-0.4	-17	-0.1	-2.5%	-3
CCN(CC)C(=O)[C@H]1C[C@H](CC(=O)NCCCN(C)C)C(=O)N2CCc3c([nH]c4cc(CCC(=O)N(C)C)ccc34)[C@]12C	-4	-1.7	7	1.5	0.6%	7
COc1ccc(C(CNC(=O)c2ccc(-c3nc4ccccc4s3)o2)N2CCCC2)cc1 (stereo not drawn)	-5	-2.4	-25	0.2	-0.3%	-16
COCCCNC(=O)c1ccc(Cn2c(=O)c3ccccc3n(Cc3ccccc3C)c2=O)cc1	5&-8	-1.0	-8	0.5&4.1	12%&9.1%	3
O=C(CCC(=O)N1CCOc2ccccc21)N1CCCCC1	14	-6.2	-3	0.2	-0.1%	0
CC1(C)[N+]([O-])=C2C(=[N+]([O-])C1(C)C)c1ccccc1/C2=N\O	3	-0.7	-2	-0.8	0.1%	3
CCc1ccc(NC(=O)c2ccc(F)c(S(=O)(=O)N3CCc4ccccc4C3)c2)cc1	36	.	.	1.2	-0.9%	.
N#CCN(C(=O)COC(=O)C1CC2CCCC(C1)C2=O)c1ccccc1 (stereo not drawn)	-17	-2.3	5	0.5	-1.9%	8
O=C(Cc1ccccc1)NC1CC(=O)N(c2ccc3c(c2)OCCO3)C1 (stereo not drawn)	11	.	.	-0.4	1.3%	.
COc1cccc(-c2nc(CS(=O)(=O)CC(=O)NCc3cccc(Cl)c3)c(C)o2)c1	-17	.	.	-0.2	-1.7%	.
COC(=O)c1c(NC(=O)c2ccco2)sc2c1CCN(C(C)=O)C2	-5	-3.5	-7	-0.1	1.7%	-23
CSc1ccccc1NC(=O)CN(C)CC(=O)NCc1ccccc1	10	1.6	0	-0.5	-0.1%	5
